Compound activity (PubChem BioAssay)
VDR inhibitor – vitamin D3 receptor (human) inhibition; Potency, µM, without a hit: max response, negative = inhibition, usual class: inhibitors; VDR-SRC2-3 peptide fluorescence polarization, 2 h; hit rate 0.93% among 400,000; P11473; AID 504847; active means well fitted inhibition curve with a large enough effect; inconclusive means small, poorly fitted or top-dose-only effect, or another doubt; inactive means no such curve, though single readings can be large or run the other way; further: series mostly up to about 120 µM
Target sequence (P11473 whole entry, looked up): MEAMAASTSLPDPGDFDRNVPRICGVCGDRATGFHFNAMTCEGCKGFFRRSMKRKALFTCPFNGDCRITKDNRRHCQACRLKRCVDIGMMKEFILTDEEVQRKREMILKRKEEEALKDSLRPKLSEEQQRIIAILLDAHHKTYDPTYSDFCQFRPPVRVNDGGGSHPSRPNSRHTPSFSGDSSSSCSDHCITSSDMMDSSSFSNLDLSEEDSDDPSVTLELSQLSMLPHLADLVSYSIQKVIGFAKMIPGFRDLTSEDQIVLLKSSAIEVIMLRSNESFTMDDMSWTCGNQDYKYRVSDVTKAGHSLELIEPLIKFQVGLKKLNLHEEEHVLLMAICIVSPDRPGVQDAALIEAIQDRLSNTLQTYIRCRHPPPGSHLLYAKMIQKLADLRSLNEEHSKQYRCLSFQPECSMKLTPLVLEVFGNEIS
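Reagent solutions, kept cold and dark, are dispensed first; compounds are then pinned in at 23 nl, plates briefly spun, and incubated 2 h at ambient temperature. Inhibition of VDR–SRC2-3 peptide binding is read by fluorescence polarization.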
* marks the source's active call; other numbers are inactive results; u = inconclusive; & = joins results of further samples. On the % scale 0 is the no-effect control and ±100 the full control effect; potency means the concentration at half of the fitted maximal effect.

entry | structure | VDR inhibitor
1 | COc1ccccc1NS(=O)(=O)c1ccc(C(=O)NCCCN2CCOCC2)cc1 | 10%
2 | CCOC(=O)c1ccc(NC(=O)C(CC)(CC)C(=O)OCC)cc1 | -14%
3 | O=C(c1ccc(Cl)s1)N1CCOCC1 | -1%
4 | CC(C)(C)NC(=O)COc1ccc(CNCc2cccs2)cc1 | 5%
5 | Cc1cccc(-n2c(SCC(=O)NCC3CCCO3)nc3ccccc3c2=O)c1C (centres undefined) | -6%
6 | S=C1CC2CCCC(C2)N1 (centres undefined) | -18%
7 | CCOC(=O)c1c(C)oc2nc(C)nc(NCc3ccc(OC)cc3OC)c12 | -6%
8 | COc1cc(C2c3c(-c4ccc(C)cc4)n[nH]c3C(=O)N2c2ccc(F)cc2)ccc1O (centres undefined) | -20%
9 | COc1ccccc1CNn1c(-c2cccc(C)c2)nc2ccccc2c1=O | 1%
10 | CCCCC(CC)C(=O)N1CCN(C(=O)c2ccco2)CC1 (centres undefined) | u
11 | CCc1nnc(NC(=O)CSc2nccn2-c2ccc(OC)cc2)s1 | 12%
12 | CCOC(=O)c1sc2nc(-c3ccco3)c3c(c2c1N)CC(C)(C)OC3 | u

Later entries
entry | structure | VDR inhibitor
13 | O=C(CSC1=NS(=O)(=O)c2cc(F)ccc2N1)NCCc1ccccc1 | -14%
14 | CC(=O)Nc1ccc(NC(=O)CSc2ccc(-c3cccnc3)nn2)cc1 | -9%
15 | CC[C@H](C)/C=C(C)/C=C/C(=O)Cc1cc(O)c(C)c(O)c1C=O | -24%
16 | Cc1ccc(OCCNC(=O)CN2C(=O)NC3(CCCC3)C2=O)cc1 | 6%
17 | O=C(Nc1cccc(F)c1)Nc1ccc2c(c1)CCC2 | -3%
18 | COc1ccc(CNC(=O)[C@H](C)NC(=O)C2CCN(S(=O)(=O)c3ccc(F)cc3)CC2)cc1 | -10%
19 | Cc1ccc(S(=O)(=O)N(Cc2cccc(C(F)(F)F)c2)C(=O)N2CCN(C)CC2)cc1 | -15%
20 | CCOC(=O)C(C)Sc1ncc(OC)c(=O)[nH]1 (centres undefined) | -3%
21 | O=C(NCc1ccccc1F)C1CCCN1S(=O)(=O)c1ccc(F)cc1 (centres undefined) | -5%
22 | O=C(Nc1ccc(Cl)c(S(=O)(=O)N2CCOCC2)c1)c1ccccn1 | -9%
23 | CN(C)C1NC(=O)c2cc(-c3ccccc3)sc2N1 (centres undefined) | 11%
24 | CSCC[C@H](NC(=O)[C@H]1CC[C@H](CNC(=O)[C@@H](N)Cc2ccccc2)CC1)C(=O)O | -8%

The results go on.
entry | structure | VDR inhibitor
25 | CC(C)Cc1nc2sc3c(=O)n(N)cnc3c2c2c1COC(C)(C)C2 | -6%
26 | CS(=O)(=O)Nc1ccc(C2=NN(C(=O)C3CCCCC3)C(c3cccs3)C2)cc1 (centres undefined) | -11%
27 | CCOC(=O)N1CCN(C(=O)c2cccc(S(=O)(=O)Nc3ccc(Br)cc3)c2)CC1 | -8%
28 | O=C(CSc1nncs1)Nc1cc(-c2ccccc2)nn1-c1ccccc1 | 2%
29 | COc1ccc(-c2c(C#Cc3ccccc3)c3ccccc3n2C)cc1 | -15%
30 | Cn1c(=O)c(-c2cccs2)nc2cnc(N3CCOCC3)nc21 | 6%
31 | COc1ccc(O)c(C(=O)CC(=O)c2ccc(F)cc2)c1 | -4%
32 | COC(=O)c1ccc(NC(C)=O)o1 | -9%
33 | O=S(=O)(c1cccc(Br)c1)N1CCN(S(=O)(=O)c2ccc3c(c2)OCCO3)CC1 | -3%
34 | O=C(/C(=C\c1ccccc1)c1nc2ccccc2[nH]1)c1ccc(Cl)cc1 | u
35 | CC(C)(N=NC(C)(C)C(=N)N)C(=N)N | u
36 | Cc1nnc(NC(=O)c2cccc(Br)c2)s1 | 3%

Reformatted: results already given.
cpd | VDR inhibitor | SMILES
1 | 10% | COc1ccccc1NS(=O)(=O)c1ccc(C(=O)NCCCN2CCOCC2)cc1
2 | -14% | CCOC(=O)c1ccc(NC(=O)C(CC)(CC)C(=O)OCC)cc1
3 | -1% | O=C(c1ccc(Cl)s1)N1CCOCC1
4 | 5% | CC(C)(C)NC(=O)COc1ccc(CNCc2cccs2)cc1
5 | -6% | Cc1cccc(-n2c(SCC(=O)NCC3CCCO3)nc3ccccc3c2=O)c1C (centres undefined)
6 | -18% | S=C1CC2CCCC(C2)N1 (centres undefined)
7 | -6% | CCOC(=O)c1c(C)oc2nc(C)nc(NCc3ccc(OC)cc3OC)c12
8 | -20% | COc1cc(C2c3c(-c4ccc(C)cc4)n[nH]c3C(=O)N2c2ccc(F)cc2)ccc1O (centres undefined)
9 | 1% | COc1ccccc1CNn1c(-c2cccc(C)c2)nc2ccccc2c1=O
10 | u | CCCCC(CC)C(=O)N1CCN(C(=O)c2ccco2)CC1 (centres undefined)
11 | 12% | CCc1nnc(NC(=O)CSc2nccn2-c2ccc(OC)cc2)s1
12 | u | CCOC(=O)c1sc2nc(-c3ccco3)c3c(c2c1N)CC(C)(C)OC3
13 | -14% | O=C(CSC1=NS(=O)(=O)c2cc(F)ccc2N1)NCCc1ccccc1
14 | -9% | CC(=O)Nc1ccc(NC(=O)CSc2ccc(-c3cccnc3)nn2)cc1
15 | -24% | CC[C@H](C)/C=C(C)/C=C/C(=O)Cc1cc(O)c(C)c(O)c1C=O
16 | 6% | Cc1ccc(OCCNC(=O)CN2C(=O)NC3(CCCC3)C2=O)cc1
17 | -3% | O=C(Nc1cccc(F)c1)Nc1ccc2c(c1)CCC2
18 | -10% | COc1ccc(CNC(=O)[C@H](C)NC(=O)C2CCN(S(=O)(=O)c3ccc(F)cc3)CC2)cc1
19 | -15% | Cc1ccc(S(=O)(=O)N(Cc2cccc(C(F)(F)F)c2)C(=O)N2CCN(C)CC2)cc1
20 | -3% | CCOC(=O)C(C)Sc1ncc(OC)c(=O)[nH]1 (centres undefined)
21 | -5% | O=C(NCc1ccccc1F)C1CCCN1S(=O)(=O)c1ccc(F)cc1 (centres undefined)
22 | -9% | O=C(Nc1ccc(Cl)c(S(=O)(=O)N2CCOCC2)c1)c1ccccn1
23 | 11% | CN(C)C1NC(=O)c2cc(-c3ccccc3)sc2N1 (centres undefined)
24 | -8% | CSCC[C@H](NC(=O)[C@H]1CC[C@H](CNC(=O)[C@@H](N)Cc2ccccc2)CC1)C(=O)O
25 | -6% | CC(C)Cc1nc2sc3c(=O)n(N)cnc3c2c2c1COC(C)(C)C2
26 | -11% | CS(=O)(=O)Nc1ccc(C2=NN(C(=O)C3CCCCC3)C(c3cccs3)C2)cc1 (centres undefined)
27 | -8% | CCOC(=O)N1CCN(C(=O)c2cccc(S(=O)(=O)Nc3ccc(Br)cc3)c2)CC1
28 | 2% | O=C(CSc1nncs1)Nc1cc(-c2ccccc2)nn1-c1ccccc1
29 | -15% | COc1ccc(-c2c(C#Cc3ccccc3)c3ccccc3n2C)cc1
30 | 6% | Cn1c(=O)c(-c2cccs2)nc2cnc(N3CCOCC3)nc21
31 | -4% | COc1ccc(O)c(C(=O)CC(=O)c2ccc(F)cc2)c1

Additional structures.
entry | structure | VDR inhibitor
37 | Cc1ccn2c(Nc3ccc4c(c3)OCCO4)c(-c3ccc(C)o3)nc2c1 | -9%
38 | COc1ccc(C(CC(=O)N2CCCCC2)c2c(OC)cc(OC)c3c(-c4ccccc4)cc(=O)oc23)cc1 (centres undefined) | 3%
39 | O=C(/C=C/c1ccco1)c1cccnc1 | -28%
40 | COc1ccc(C2CC(c3ccccc3)=NN2C(=O)COC(=O)c2cccc(O)c2)cc1 (centres undefined) | 9%
41 | Cc1cc(Cl)ccc1OCCCC(=O)NNC(=O)c1ccccc1O | 0%
42 | Cc1ccc(NC(=O)Nc2sc(=S)n(C)c2C)cc1 | -11%
43 | CCOCc1nnc(NC(=O)CCc2ccccc2)s1 | -3%
44 | CCOc1ccc(CCNC(=O)CCS(=O)(=O)c2ccc(OC)cc2)cc1OCC | 3%
45 | CCOc1ccccc1Nc1nnc(SCC(=O)N2CCCC2)s1 | 1%
46 | Cc1nn(CCCC(=O)Nc2ccccc2C(F)(F)F)c(=O)c2nn(-c3ccccc3)c(C)c12 | 15%
47 | CCc1nnc(NC(=O)CSc2nc3cc4c(cc3cc2C)OCCO4)s1 | -6%
48 | Cc1coc2c(C)c3oc(=O)c(CCC(=O)N4CCCCC4)c(C)c3cc12 | 0%

(more compounds)
#	SMILES	VDR inhibitor
49	O=C(Nc1ccc(OC(F)(F)F)cc1)NC1COc2ccccc2C1 (centres undefined)	2%
50	Cc1nc(C)c(C(=O)C2=C(O)C(=O)N(CCCn3ccnc3)C2c2ccc(Cl)cc2)s1 (centres undefined)	0%
51	CN(C)C(=O)NC1CCCCCCC1	3%
52	CCCc1cc(=O)[nH]c(SCC(=O)N(CC)Cc2ccccc2)n1	-14%
53	CCC(c1nnnn1C(C)(C)C)N1CCN(Cc2ccccc2OC)CC1 (centres undefined)	1%
54	CN(C)Cc1ccccc1-c1nc(NC2CCNCC2)c2ccccc2n1	1%
55	Cc1cc(C)c2nc(NC(=O)C3CSC4(C)CCC(=O)N34)sc2c1 (centres undefined)	9%
56	COc1cc2c(cc1OC)C(c1ccccc1Cl)N(C)CC2 (centres undefined)	-15%
57	CC(=O)Nc1ccc(NC(=O)Cn2nc(C(=O)Nc3ccc(C)cc3)ccc2=O)cc1	-9%&13%
58	S=C(NCc1ccco1)N1CCN(c2cccc(Cl)c2)CC1	-7%
59	Cn1c(C2CCCCC2)nc2c1c(=O)[nH]c(=O)n2Cc1ccccc1	-9%
60	CCc1cc(C(=O)Nc2cc(S(=O)(=O)N(CC)CC)ccc2N2CCOCC2)sc1C	5%
61	Clc1ccc(-c2ccc(C=Nc3ccc(N4CCOCC4)cc3)o2)c(Cl)c1	-16%
62	COc1ccc(-c2c(C)nn3c(N4CCN(c5ccccc5F)CC4)cc(C)nc23)cc1OC	5%
63	CSCC[C@H](NC(=O)c1cccc(S(=O)(=O)N2CCN(C)CC2)c1)c1nc2ccccc2[nH]1	2%
64	NC(=O)CC(NC(=O)Cc1ccc(Br)cc1)c1ccc(NCc2ccccn2)c([N+](=O)[O-])c1 (centres undefined)	2%
65	CCN(CC)c1cc(C(F)(F)F)nc(-c2ccccn2)n1	16%
66	CCc1ccc(CNn2cnnc2SCC(=O)NC(C)(C)C)cc1	12%
67	Cc1ccc(-n2ncc3c(NNC(=O)c4ccco4)ncnc32)cc1Cl	0%
68	CCCC(=O)Oc1c(S(=O)(=O)c2ccc(C)cc2)c(C)nn1C(C)(C)C	1%
69	COc1ccc(NC(=O)c2cnc(SC)nc2C)c(OC)c1	16%
70	Cc1ccnc(NC(=O)c2ccc(Cl)c(S(=O)(=O)N3CCCC3)c2)c1	5%
71	Cc1ccccc1CC(=O)N1CCCC1	-7%
72	COc1ccc(S(=O)(=O)Nc2cccc3c2O[C@H](CN(C)C(=O)Nc2ccc4c(c2)OCO4)[C@@H](C)CN([C@H](C)CO)C3=O)cc1	0%
73	O=C(O)c1[nH]c2ccccc2c1C(c1c(F)cccc1Cl)c1c(C(=O)O)[nH]c2ccccc12	u

(listing goes on)
#	SMILES	VDR inhibitor
74	CC(C)(C)NC(=O)COC(=O)c1ccc(O)cc1	13%
75	Cc1cccc(OCCCC(=O)NCCc2ccccc2)c1	-14%
76	O=C(Nc1nc(-c2ccc3ccccc3c2)cs1)C1CCN(S(=O)(=O)c2cccs2)CC1	-12%
77	COCCNS(=O)(=O)c1cc2[nH]c3c(c2cc1C)C(=O)CC(C)(C)C3	-6%
78	COc1ccccc1NS(=O)(=O)c1cc(C(=O)N2CCCC2)ccc1F	-4%
79	CC1CN(C(=O)CN2C(=O)NC(C)(c3ccccc3)C2=O)CC(C)O1 (centres undefined)	14%
80	CCC(=O)N1CCN(c2ccccc2NC(=O)COc2cccc(C)c2)CC1	22%
81	Cc1ccc(OCCOC(=O)c2cccc(S(=O)(=O)N3CC(C)OC(C)C3)c2)cc1 (centres undefined)	-2%
82	COc1cccc(NS(=O)(=O)c2ccc(S(=O)(=O)N3CCCC3)cc2)c1	-8%
83	COc1cccc(CNC(=O)Cn2c(=O)nc(-c3ccccc3F)c3cc(Cl)ccc32)c1	13%
84	Cc1ccc(NC(=S)N(CCCN2CCOCC2)Cc2ccccn2)cc1	-17%
85	O=C(Cc1ccccc1)Nc1ccc2c(c1)C(=O)N(CC1CCCO1)C2=O (centres undefined)	-14%
86	COc1ccc(/C=c2/sc3n(c2=O)C(c2ccccc2OC)C2=C(N=3)c3ccccc3CC2)cc1O (centres undefined)	2%
87	CCOc1ccc(Nc2ncnc3c2nc2n3CCCCC2)cc1	-3%
88	Oc1c(C(c2ccco2)N2CCC3(CC2)OCCO3)sc2ncnn12 (centres undefined)	-11%
89	NC(=O)CCC(=O)N1CCCC(C(=O)c2ccc3c4c(cccc24)CC3)C1 (centres undefined)	-7%
90	COc1ncc2nc(CCc3ccccc3)c(=O)n(C)c2n1	-10%
91	CC(C)CCNC(=O)c1cc(-c2cccnc2)nc2ccc(S(=O)(=O)N3CCC(C)CC3)cc12	18%
92	Cc1ccccc1-n1cc[nH]c1=S	-13%
93	Cc1nc(CCN2C(=O)c3ccccc3C2=O)cs1	-17%
94	O=C(Nc1cccc(F)c1)[C@H](CSCc1ccccc1)N1Cc2ccccc2C1=O	-4%
95	C/C(=N\NC(=O)c1sccc1C)c1cccnc1	-13%

Not all compounds are listed; rates above refer to the full screens.
